N370S GC mod = N370S glucocerebrosidase modulation, Gaucher chaperone candidate | P04062 | N370S GC spleen homogenate, 4MU-glucoside fluorescence | Potency, µM (doses to about 59.4 µM), inactives show at the top dose activity change, negative = inhibition, most hits filed as inhibitors | 330,000 compounds, 0.092% hits | AID 2101; active = well fitted inhibition curve with a large enough effect; inconclusive = small, poorly fitted or top-dose-only effect, or effect the other way, or another doubt; inactive = no such curve, though single readings can be large or run the other way;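 also: 0% = full enzyme activity and -100% = no enzyme basal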
* = called active by the depositor; ? = inconclusive; & = joins results of further samples. Potency is read from the fitted curve at half-maximal effect. These rows are one share of the data, and most or all hits are left out here.

#1 COc1ccc(CN2CCCC(C(=O)c3ccc(Cl)cc3)C2)c(O)c1 (configuration not stated)
  N370S GC mod: -8%

#2 O=C1CC[C@@]2(O)[C@H]3Cc4ccc(O)c5c4[C@@]2(CCN3CC2CC2)[C@H]1O5
  N370S GC mod: 19%

#3 COc1ccc(C2=NS(=O)(=O)N(C)C(C(=O)N3CCC4(CC3)OCCO4)=C2)cc1OC
  N370S GC mod: -11%

#4 CCCCn1c(=O)c(C(=O)NCc2ccncc2)c(O)c2ccccc21
  N370S GC mod: -16%

#5 Cc1cccc(C)c1NC1=NCCCS1
  N370S GC mod: 0%

#6 O=C(CCl)NN=C(c1ccccc1)c1ccccc1
  N370S GC mod: 0%

#7 COc1ccc(C(c2c(O)c3ccccc3oc2=O)c2c(C)n(C)n(-c3ccccc3)c2=O)cc1 (configuration not stated)
  N370S GC mod: -4%

#8 O=C1CC[C@@]2(O)[C@H]3Cc4ccc(O)c5c4[C@@]2(CCN3CC2CC2)[C@@H]1O5
  N370S GC mod: -3%

#9 CC(NCc1ccc(Cl)cc1Cl)C(O)c1ccccc1 (configuration not stated)
  N370S GC mod: 2%

#10 O=C1C=CC(=O)C=C1
  N370S GC mod: 4%&-1%

#11 Cc1ccc2c(c1)C1CN(C)CCC1N2C(=O)c1ccc(Br)o1 (configuration not stated)
  N370S GC mod: -11%

#12 NS(=O)(=O)c1ccc(N2CCNCC2)cc1
  N370S GC mod: -2%

#13 NC(=O)CN1CC(O)CC1=O (configuration not stated)
  N370S GC mod: -2%

#14 O=C1CC[C@@]2(O)C3Cc4ccc(O)c5c4C2(CCN3CC2CC2)[C@H]1O5 (some centres not stated)
  N370S GC mod: 3%&12%

#15 C=C1C(=O)O[C@@H]2C[C@@H](C)[C@@H]3C=CC(=O)[C@@]3(C)[C@@H](O)[C@H]12
  N370S GC mod: ?

#16 C=C1C(=O)O[C@H]2[C@H]1[C@H](OC(=O)CC(=O)O[C@@H]1C[C@@H](C)[C@@H]3C=CC(=O)[C@@]3(C)[C@H]3OC(=O)C(=C)[C@H]13)C[C@@H](C)[C@H]1C=CC(=O)[C@]12C
  N370S GC mod: 11%

#17 CCOC(=O)c1cncn1[C@@H](C)c1ccccc1
  N370S GC mod: -15%

#18 C[C@]12CC[C@@H](O)C[C@H]1CC[C@@H]1[C@@H]2CC[C@]2(C)C(=O)CC[C@@H]12
  N370S GC mod: -10%

Shown as tab-separated lines: part of the list above
item	canonical_smiles	N370S GC mod
1	COc1ccc(CN2CCCC(C(=O)c3ccc(Cl)cc3)C2)c(O)c1 (configuration not stated)	-8%
2	O=C1CC[C@@]2(O)[C@H]3Cc4ccc(O)c5c4[C@@]2(CCN3CC2CC2)[C@H]1O5	19%
3	COc1ccc(C2=NS(=O)(=O)N(C)C(C(=O)N3CCC4(CC3)OCCO4)=C2)cc1OC	-11%
4	CCCCn1c(=O)c(C(=O)NCc2ccncc2)c(O)c2ccccc21	-16%

2 records picked at random from those above, as already listed:
#15 C=C1C(=O)O[C@@H]2C[C@@H](C)[C@@H]3C=CC(=O)[C@@]3(C)[C@@H](O)[C@H]12
  N370S GC mod: ?

#17 CCOC(=O)c1cncn1[C@@H](C)c1ccccc1
  N370S GC mod: -15%

Compound activity as filed in PubChem.
